Bioassay records from PubChem.
GIV-Gai inh: inhibitors of GIV GBA-motif binding to rat Galpha-i3; P08753; Galpha-i3/FITC-GIV peptide fluorescence polarization, 90 min; hits give low values; scaled: aluminum fluoride 0%, vehicle 100%; percent of control (FP), % (test concentration not listed); actives 0.42% (n = 210,000);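 active = replicate mean at 85% of control or lower, very high polarization wells dropped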;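 note: wells of about 15 µL received 100 nL stock; the first replicate is given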
Target sequence (P08753 whole entry, looked up): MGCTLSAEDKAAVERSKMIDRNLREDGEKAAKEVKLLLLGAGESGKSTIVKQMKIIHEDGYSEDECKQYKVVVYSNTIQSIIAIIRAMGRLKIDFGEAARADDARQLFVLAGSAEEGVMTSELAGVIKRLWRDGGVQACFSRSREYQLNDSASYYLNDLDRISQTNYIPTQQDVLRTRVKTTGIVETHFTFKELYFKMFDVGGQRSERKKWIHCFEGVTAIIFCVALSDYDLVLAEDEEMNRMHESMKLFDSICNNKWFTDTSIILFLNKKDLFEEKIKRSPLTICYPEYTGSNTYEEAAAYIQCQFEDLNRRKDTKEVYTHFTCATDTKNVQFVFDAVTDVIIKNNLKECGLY
* = called active by the depositor. A portion of the library; count on the stated rates, not on these rows.

SMILES	GIV-Gai inh
O=c1c2c(n3cnnc3n1-c1ccccc1)-c1ccccc1CC21CCCC1	107.8
Cc1nn(-c2ccc3nnc(C)n3n2)c2c1C(c1cc(Br)ccc1F)CC(=O)N2 (stereo not drawn)	97.1
Cc1cc(OCC(=O)Nc2ccc(Br)cc2)nc(N2CCCC2)n1	98.5
O=C(Cc1ccsc1)Nc1cnc(N2CCOCC2)nc1	109.4
O=c1oc2ccccc2cc1-c1csc(N2N=C3/C(=C/c4ccccc4)CCCC3C2c2ccccc2)n1 (stereo not drawn)	112.5
CCCCCCCCCCCCNC(=O)C1OC2OC(C)(C)OC2C2OC(C)(C)OC12 (stereo not drawn)	105.5
O=C(Nc1ccc(S(=O)(=O)N2CCCCC2c2cccnc2)cc1)c1cccc(Cl)c1 (stereo not drawn)	110.3
CCOc1ccc(NC(=O)CSc2nnc(NC(=O)CC34CC5CC(CC(C5)C3)C4)s2)cc1	110.8
O=C(Nc1nccs1)C1CCCN(S(=O)(=O)c2cc(-c3noc(C4CCCC4)n3)cs2)C1 (stereo not drawn)	98.9
Cc1noc2nc(CCC(=O)NC(C)C)nc(N3CCC(C)CC3)c12	99.1
Cc1c(N(CC(=O)NCc2ccccc2)S(=O)(=O)c2ccccc2)c(=O)n(-c2ccccc2)n1C	107.6
O=C(CCC(=O)N1Cc2cccn2-c2ccccc21)NCCc1c[nH]c2ccccc12	104.3
CCC(C)NC(=O)COc1ncnc2onc(-c3ccccc3)c12 (stereo not drawn)	100.9
CCCCOc1ccccc1C1C(C(=O)OC)=CN(Cc2ccc(OC)c(OC)c2)C=C1C(=O)OC	103.0
COc1ccc2c(c1)C(C)(C)C1(C=Cc3cccc(OC)c3O1)N2C (stereo not drawn)	109.7
Cn1nc(-c2nnc(-c3ccc(F)cc3)o2)c2c1CCN(S(=O)(=O)c1ccc(F)cc1F)C2	100.3
COc1cc(OC)c(NC(=O)c2sc3ncn(CC(=O)N4CC(C)CC(C)C4)c(=O)c3c2C)cc1Cl (stereo not drawn)	95.7
CN1CCN(S(=O)(=O)c2ccc3c(c2)C(=O)c2cc(S(=O)(=O)N4CCN(C)CC4)ccc2-3)CC1	111.3
CCc1nc(CN2C(=O)COc3ccc(S(=O)(=O)N4CCCC4)cc32)no1	108.3
COc1cccc(NC2(c3nnnn3-c3ccccc3C)CCCC2)c1	105.0
CCCNC(=O)OCC12COC3c4ccccc4OC(C)(CC1C)C3C2C (stereo not drawn)	102.5
O=C(Oc1ccc(C2NC(=O)c3c(sc4c3CCCC4)N2)cc1)c1ccccc1 (stereo not drawn)	110.3
CCCCCn1c(SCC(=O)Nc2ccc(OCC)cc2)nc2cc(C(=O)N3CCC(C(N)=O)CC3)ccc2c1=O	104.2
O=S(=O)(c1ccc2c(c1)-c1oncc1CO2)N1CCN(Cc2ccc3c(c2)OCO3)CC1	106.5
COc1cc(NC(=O)N2CCN(Cc3cc(=O)n4nc(-c5ccccc5)sc4n3)CC2)cc(OC)c1	107.4
CCn1c(SCc2nc(-c3ccccc3C)oc2C)nc(=O)c2c(C(=O)OC)cc(C)nc21	104.3
CN(Cc1ccccc1)C(=O)c1cc(NS(=O)(=O)c2ccc(Cl)cc2)ccc1N1CCNCC1	100.9
O=C1CC(c2ccc3ccccc3c2)c2ccc3ccccc3c2N1 (stereo not drawn)	101.8
CCCS(=O)(=O)c1c(S(=O)(=O)CCC)c2ccccn2c1C(=O)N/N=C/c1cccc(OC)c1	108.8
CCCn1cnc2sc(C(=O)N3CC(C)CC(C)C3)c(C)c2c1=O (stereo not drawn)	105.8
Cc1nnc(NC(=O)CSc2nc3c(c(=O)n2-c2ccc(F)cc2)SCC3)s1	103.5
COc1cc(C2C(C(=O)OC(C)C)=C(C)NC3=C2C(=O)CC(c2cccs2)C3)cc([N+](=O)[O-])c1O (stereo not drawn)	107.0
O=C(Nc1ccc(Cl)cc1)c1nnc(C2CCCN(C(=O)c3cccc(F)c3)C2)s1 (stereo not drawn)	102.5
Cc1ccc(-c2n[nH]c(CCNS(=O)(=O)c3cccc(Cl)c3C)n2)cc1	107.4
COc1ccccc1-c1noc(Cc2nc(-c3ccc(C)c(C)c3)cs2)n1	95.2
C#CCOC1(c2ccccc2)OC(=O)c2ccccc21 (stereo not drawn)	107.0
O=C(NCc1cccc(Cl)c1)c1nnc2ccc(-c3ccccc3)nn12	108.3
COC(=O)c1ccc(C2C3=C(CC(C)(C)CC3=O)NC3=C2C(=O)CC(C)(C)C3)cc1	118.2
Cc1nn(-c2ccc(-c3ccccc3)nn2)c(C)c1S(=O)(=O)N1CCCN(C)CC1	100.8
Cc1cc(C)c2c(n1)sc1c(=O)n(CC(=O)NCc3ccc4c(c3)OCO4)cnc12	98.2
CN(C(=O)C(O)(c1ccc(F)cc1)c1ccc(F)cc1)N(c1ccccc1)c1ccccc1	102.0
CC1(C)CC(=O)C(C2=NC3(CCCC3)Cc3ccccc32)=C(O)C1	111.1
CCOC(=O)c1cccc(NC(=O)c2ccc(-n3cnc(NC(C)=O)c3)cc2)c1	98.8
N#Cc1c(N)nc(SCC(=O)NCc2ccccc2)c(C#N)c1-c1cccs1	102.3
CCCCc1cnc2c(c1SCC)c(=O)n(C)c(=O)n2C	103.1
OCCNc1nc(Nc2cccc(Cl)c2)c2cnn(-c3ccccc3)c2n1	101.2
CCN1C(=O)C2C3c4ccccc4C(C(=O)O)(c4ccccc43)C2C1=O (stereo not drawn)	111.1
Cc1nn(-c2ccccc2)c(-n2cccc2)c1CNC(=O)Nc1ccccc1Cl	110.3
O=C(CCN1C(=O)/C(=C/c2cccs2)SC1=S)Oc1ccc2oc(=O)sc2c1-c1ccccc1Cl	105.7
NC(=O)c1ccccc1NC(=O)CSc1nnc(-c2cc3ccccc3o2)n1-c1ccccc1	109.3
CCSc1nc2ccc(NS(=O)(=O)c3cc(C)cc(C)c3)cc2s1	102.4
CCC(C)NC(=O)Cn1cnc2nc(N3CCC(C(=O)NC4CC4)CC3)sc2c1=O (stereo not drawn)	94.9
CCc1ccc(CN2CCn3c(CC)nnc3C2)o1	96.0
CCOc1ccc(-c2[nH]ncc2CN2CCCC2c2cc(C(C)C)no2)cc1 (stereo not drawn)	125.0
Cc1nc(-c2ccc(S(=O)(=O)N3CCN(c4ccccn4)CC3)cc2)co1	104.4
COc1ccc(-c2nnc(-c3ccc(C)c(S(N)(=O)=O)c3)o2)cc1OC	103.3
CC(C)c1ccc(S(=O)(=O)N2CCCN(c3nc4cccnc4s3)CC2)cc1	100.4
Cc1[nH]nc2c1C(c1c(OC(=O)N3CCOCC3)ccc3ccccc13)C(C#N)=C(N)O2 (stereo not drawn)	105.4
CCOc1cc(C=C2C(=O)NC(=O)NC2=O)cc(Br)c1OCCOc1ccc(C)cc1	108.9
Cc1ccc(/C(O)=C2\C(=O)C(=O)N(c3ccccn3)C2c2ccccc2Cl)cc1 (stereo not drawn)	108.5

Some of the entries so far, with the structure last.
| GIV-Gai inh | molecule |
| --- | --- |
| 103.5 | Cc1nnc(NC(=O)CSc2nc3c(c(=O)n2-c2ccc(F)cc2)SCC3)s1 |
| 107.0 | COc1cc(C2C(C(=O)OC(C)C)=C(C)NC3=C2C(=O)CC(c2cccs2)C3)cc([N+](=O)[O-])c1O (stereo not drawn) |

Further compounds:
SMILES	GIV-Gai inh
O=c1c2c(n3cnnc3n1Cc1ccccc1)-c1ccccc1CC21CCCCC1	106.0
CCSc1c(COC)cnc2c1c(=O)n(C)c(=O)n2C	99.9
O=C(N1CCCC1)C1(c2ccccc2)CCOCC1	118.9
COC(=O)C1=C(C(=O)OC)SC2(S1)C(C(=O)OC)=C(C(=O)OC)SC1=C2c2cc(C)ccc2N(C(=O)C(F)(F)F)C1(C)C	111.0
CC(=O)Nc1ccc(NC(=O)Cn2nc(C(=O)Nc3ccccc3)ccc2=O)cc1	104.9
Cc1ccc(-n2nc3c(c2NC(=O)c2ccc(S(=O)(=O)N4CCCC4)cc2)CS(=O)(=O)C3)c(C)c1	104.3
COc1ccc2nc(SCC(=O)Nc3ccc(NC(C)=O)cc3)n(S(=O)(=O)c3ccc(C)cc3)c2c1	111.8
CC1CCCCN1S(=O)(=O)c1ccc2c(c1)CCN2C(=O)CCC(=O)N1CCCC1 (stereo not drawn)	102.5
CN(C)c1nc(Nc2cccc(F)c2)c2cnn(-c3ccccc3)c2n1	97.3
CCCN1CCN(c2ncnc3sc(C(=O)N4CCN(c5ccc(F)cc5)CC4)c(C)c23)CC1	118.4
COc1ccc(N=c2ssc3c2-c2cc(C)c(C)cc2NC3(C)C)cc1	105.1
O=C(c1ccccc1Cl)N1CCN(Cc2cc(=O)n3nc(-c4ccccc4)sc3n2)CC1	99.4
O=C1c2ccccc2-c2onc3c(N4CCCCC4)cc(Nc4ccccc4)c1c23	108.1
CCOC(=O)c1c(NC(=O)CSc2nnc(CNC(=O)c3ccco3)n2-c2ccc(F)cc2)sc2c1CCC2	105.8
Cc1sc(-c2cc(C(F)(F)F)[nH]n2)cc1S(=O)(=O)N1CCN(c2ccccc2F)CC1	99.6
Cc1nccc2[nH]c(=O)c(C(=O)NCCC(C)C)cc12	105.3
Cc1ccc(N/C(SCc2ccc(Cl)cc2)=C(/C#N)C(=O)NCc2ccco2)cc1C	104.5
COc1ccc(OC)c(C2C(N3C(=O)c4c(Cl)c(Cl)c(Cl)c(Cl)c4C3=O)C(=O)N2c2ccc(C)c(Cl)c2)c1 (stereo not drawn)	104.6
CCOc1cc(C2C(C(=O)OC)=CN(Cc3ccc(F)cc3)C=C2C(=O)OC)cc([N+](=O)[O-])c1O	99.3
O=C(NCCCN1CCCCC1)c1cn2c(n1)CSCC2	100.0
O=[N+]([O-])c1ccc2c(c1)C=C1CCCCC1(N1CCOCC1)O2 (stereo not drawn)	112.4
O=C(NCc1ccc(S(=O)(=O)N2CCCCC2)s1)C1(c2ccccc2)CC1	100.7
CC(C)NC(=O)N1CCCC(C)(C(=O)NCc2ccccc2)C1 (stereo not drawn)	109.3
CCN1C(=O)C2C(c3ccccc3O)NC(CCSC)(C(=O)O)C2C1=O (stereo not drawn)	107.8
O=C(CC1CCCC1)N1CCN(Cc2noc(-c3ccccc3)n2)CC1	103.8
COC(=O)c1ccc2c(=O)n(-c3ccc(Cl)cc3)c(N3CCN(C4CCCCC4)CC3)nc2c1	99.8
O=C1C=C(c2cccs2)C[C@H](c2ccccc2)[C@H]1n1nnc([N+](=O)[O-])n1	101.4
CCc1csc(C2CCN(C(=O)C(C)C)CC2)n1	102.7
COC(=O)C1=CN(Cc2ccc(F)cc2)C=C(C(=O)OC)C1c1cc(Br)c(OC)c(OC)c1	102.1
CCCCOc1ccc(-c2csc(-c3cc4cc(Cl)ccc4oc3=O)n2)cc1	115.7
CSCON1C(=O)CN(C(C)=O)C1c1ccc(Cl)cc1Cl (stereo not drawn)	102.7
CCOc1cc(C2C(C(=O)OC3CCCC3)=C(C)NC3=C2C(=O)CC(c2cccs2)C3)ccc1O (stereo not drawn)	95.8
CCOc1ccc2nc(NC(=O)C3CCCN(S(=O)(=O)c4cccc5cccnc45)C3)sc2c1 (stereo not drawn)	97.8
Cn1c(=O)n(Cc2cccnc2)c(=O)c2cnc(-c3cccnc3)nc21	103.8
O=c1c2cc3c(cc2nc(SCc2nc(-c4ccccc4)no2)n1C1CC1)OCO3	103.0
CCCCN1CCN(S(=O)(=O)c2cc(-c3nnc(C4CCCC4)o3)co2)CC1	100.5
COc1ccc(-n2nnnc2CNC(=O)C2CC(=O)N(c3ccc(C)c(C)c3)C2)cc1 (stereo not drawn)	103.5
CCOC(=O)C1CCN(C(=O)c2ccc3nc(-c4ccc(OC)c(OC)c4)c(-c4ccc(OC)c(OC)c4)nc3c2)CC1	105.0
O=c1oc2ccccc2cc1-c1nc(-c2ccccc2)c2cc(Cl)ccc2n1	104.4
COc1cccc(-c2nc(C)c(-c3ccc(SCc4ccncc4)nn3)s2)c1	97.0
CCOC(=O)CNC(=O)c1sc2ncnc(N3CCN(c4ccccc4F)CC3)c2c1C	98.0
CN(C)c1cc(OC2CCN(C(=O)CC3CCCC3)C2)ncn1 (stereo not drawn)	101.3
CN(C)c1ccc(C2(c3ccc(N(C)C)cc3)OC(=O)c3ccccc32)cc1	108.3
O=C(CSc1nc2ccccc2s1)Nc1ccc(Cl)c(Cl)c1	113.2
Cc1nc(-c2ccc(-c3noc(-c4sc(C)nc4C)n3)cc2)cs1	100.8

Part of the list above in order of formula weight, lowest first:
SMILES	GIV-Gai inh
CN(C)c1cc(OC2CCN(C(=O)CC3CCCC3)C2)ncn1 (stereo not drawn)	101.3
Cn1c(=O)n(Cc2cccnc2)c(=O)c2cnc(-c3cccnc3)nc21	103.8
CSCON1C(=O)CN(C(C)=O)C1c1ccc(Cl)cc1Cl (stereo not drawn)	102.7
O=c1oc2ccccc2cc1-c1nc(-c2ccccc2)c2cc(Cl)ccc2n1	104.4
O=c1c2cc3c(cc2nc(SCc2nc(-c4ccccc4)no2)n1C1CC1)OCO3	103.0
CCOc1cc(C2C(C(=O)OC3CCCC3)=C(C)NC3=C2C(=O)CC(c2cccs2)C3)ccc1O (stereo not drawn)	95.8

The list continues:
SMILES	GIV-Gai inh
Cc1cc(=O)n2ccsc2n1	105.9
O=S(=O)(NC1CCCC1)c1ccc(-c2ccno2)s1	99.5
Cc1[nH]n(-c2ccccc2)c(=O)c1C(=O)c1ccccc1F	101.4
Cc1ccc(Cl)cc1NS(=O)(=O)c1c(C)sc(C)c1-c1cc(C(F)(F)F)on1	101.3
O=C1CC(c2nc(Cn3cnc(S(=O)(=O)N4CCCCC4)c3)no2)CN1c1cccc(Cl)c1 (stereo not drawn)	101.5
CCNc1cc(C)nc(Nc2ccc(NC(=O)C(CC)CC)cc2)n1	103.6
Cc1ccc2nc(COc3ccccc3NC(=O)CN3C(=O)c4ccccc4C3=O)cc(=O)n2c1	103.6
O=c1n(CCOc2ccccc2)nc2c(S(=O)(=O)N3CCN(c4ccc(F)cc4)CC3)cccn12	98.5
COc1ccc(/C=C2\C=C(c3ccccc3)N(c3ccc4ccccc4c3)C2=O)cc1Br	112.4
NS(=O)(=O)c1ccc(N2C(=O)C(=O)/C(=C(/O)c3ccccc3)C2c2ccccc2F)cc1 (stereo not drawn)	109.1
CCCC(=O)N1CCCN(c2cc(=O)n(C(C)C)c(=O)n2C(C)C)CC1	103.3
